Bioassay records: PubChem BioAssay, National Center for Advancing Translational Sciences (NCATS)
VACV mCherry inh = inhibitors of vaccinia virus infection (mCherry reporter signal). Vaccinia virus mCherry reporter infection, fluorescence; about a quarter of the inactives have no number. Potency, µM (series often up to 36.5 µM), without a hit: at the highest dose activity change, negative = inhibition, usual class: inhibitors. hit rate 0.63% among 310,000. AID 720579; active = well fitted inhibition curve with a large enough effect; inconclusive = small, poorly fitted or top-dose-only effect; inactive = no such curve, though single readings can be large or run the other way; tested in A549 cells; also: nearly all actives have a fitted effect of over 35% in size; inactives centre near -10
VACV Venus inh = inhibitors of vaccinia virus (Venus reporter); Vaccinia virus Venus reporter expression, fluorescence; Potency, µM (top dose mostly 36.5 µM), without a hit: at the top dose activity change, negative = inhibition, usual class: inhibitors; hit rate 0.46% among 330,000; AID 720580; active means well fitted inhibition curve with a large enough effect; inconclusive means small, poorly fitted or top-dose-only effect; inactive means no such curve, though single readings can be large or run the other way; tested in A549 cells; also: nearly all actives have a fitted effect of over 30% in size; inactives centre near -10
An asterisk follows results filed as active; i = inactive; ? = inconclusive; nt = not tested or not shown; [ ] = another dose, or the depositor's remark. % is scaled to controls: 0 for no effect and ±100 for the full control effect; potency is read from the fitted curve at half-maximal effect.

Compound | VACV Venus inh | VACV mCherry inh
CC1(C(=O)NS(=O)(=O)c2ccc(C#N)cc2)CCN1C(=O)CC1CCCCC1 (configuration not stated) | 7.3% | 14.2%
CCN(C(=O)CSc1nnc(-c2cc3occc3n2C)n1-c1ccccc1C)c1cccc(C)c1 | -16.1% | -11.6%
COc1cc(NC(=O)COc2cc(C)cc3oc(=O)cc(C)c23)cc(OC)c1OC | -13.5% | -16.2%
Cc1nc([N+](=O)[O-])cn1CC(O)c1ccc2c(c1)OCO2 (configuration not stated) | -10.1% | -13.1%
C[C@@H]1CN(C2CCN(Cc3nc(CC4CC4)no3)CC2)C[C@H](C)O1 | -0.9% | ?
COc1ccc2cc(-c3cc(C(=O)OCC(=O)NC4CCS(=O)(=O)C4)c4ccccc4n3)ccc2c1 (configuration not stated) | -25.9% | ?
CCCC1=Nc2cc(C(=O)NC3CCCCC3)ccc2Sc2ccc(C)cc21 | ? | ?
COc1cccc(OC)c1C(=O)NC(=O)NNc1cc(C(F)(F)F)cc(C)n1 | -26.7% | ?
Cc1c(C(c2ccc([N+](=O)[O-])cc2)c2c(C)n(C)n(-c3ccccc3)c2=O)c(=O)n(-c2ccccc2)n1C | -2.8% | nt
COc1ccc2nc3sc(C(=O)N4CCN(c5ccccc5)CC4)cc3cc2c1 | -11.0% | -13.7%
Cc1cccc(N2CCN(C(=O)Cc3ccc(-n4c(=O)[nH]c5ccsc5c4=O)cc3)CC2)c1C | -25.7% | -7.0%
CN(Cc1ccccc1F)C(=O)c1ccc2c(=O)n3c(nc2c1)CCC3 | -17.3% | -1.6%
O=C1c2cccnc2C(=O)N1CNc1ccc(Cl)cc1 | 0.3% | -12.1%
Cn1c(N)c(C(=O)CSc2nc(N)cc(N)n2)c(=O)n(C)c1=O | -8.8% | i
CCCc1cc2c(=O)c(-c3ccccn3)coc2cc1OC | ? | -5.7%
Cc1cccc(C(=O)Oc2ccc(/C=N/NC(=O)c3cc(O)cc(O)c3)cc2)c1 | -8.4% | -13.7%
COc1ccccc1OCC(=O)Nc1ccc(S(=O)(=O)Nc2onc(C)c2C)cc1 | 4.1% | -8.8%
Cc1cccc(NC(=O)CN2C(=O)CC(c3ccccc3)Sc3ccccc32)c1 (configuration not stated) | -11.2% | -8.7%
O=C(COC(=O)c1sc2ccccc2c1Cl)Nc1ncc(Cl)cc1Cl | -5.9% | i
CC(=O)c1cccc(NC(=O)c2cccc3c(-c4cccnc4)coc23)c1 | 4.5% | 11.2%
N#Cc1cccc(Cn2cc(C(F)(F)F)ccc2=O)c1 | -15.6% | i
O=C(Nc1cccc(NC(=O)C2C3CC4OC(=O)C2C4C3)c1)c1ccccc1 (configuration not stated) | -8.6% | -14.5%
COc1ccc(NS(=O)(=O)c2c(C(=O)N3CCCCCC3)c(C)n(C)c2C)cc1 | ? | -4.1%
COCCN1C(=O)C(O)=C(C(=O)c2ccco2)C1c1cccc(Oc2ccccc2)c1 (configuration not stated) | -15.4% | -9.7%
O=C(NC1CCCCCC1)c1ccc([N+](=O)[O-])s1 | -3.9% | ?

(listing goes on)
Compound | VACV Venus inh | VACV mCherry inh
C(=C\c1nc(N2CCCC2)c2ccccc2n1)/c1ccccc1 | ? | ?
CCC1NC(=O)c2cc3ccccc3cc2-n2c1nc1ccc(OC)cc1c2=O (configuration not stated) | -18.3% | -26.4%
COc1ccc(-c2c(C)oc3c(CN4CCCC(C)C4)c(O)ccc3c2=O)cc1OC (configuration not stated) | -7.3% | i
COC(C[C@@H](O)C[C@H](O)[C@H](C)OCc1ccccc1)OC | 9.9% | -10.0%
O=C(CSc1nnc(Cc2ccccc2)o1)NCc1ccc2c(c1)OCO2 | -3.4% | -0.3%
COc1ccc(S(=O)(=O)NC(C)C(=O)NCc2ccncc2)cc1Cl (configuration not stated) | 15.3% | i
COc1ccccc1-c1nccc(NCc2cccc(C)c2)n1 | -8.9% | -11.4%
CC1CCc2nc3ncn(Cc4ccccc4C#N)c(=O)c3cc2C1 (configuration not stated) | -12.0% | 5.0%
NCC12CC3CC(C1)CC(c1ccc(Br)cc1)(C3)C2 | 22.4µM* | ?
COC(=O)c1cc(C(=O)OC)cc(N2C(=O)CN=C2Nc2nc(C)cc(C)n2)c1 | -6.4% | nt
CC(C)NC(=O)[C@@H]1C[C@@H](Sc2ccccn2)CN1C1CCN(C)CC1 | -15.5% | i
CCOc1cccc(N(C(=O)CCC(=O)Nc2cc(C)on2)C(C(=O)NC(C)(C)C)c2ccc(OC)cc2)c1 (configuration not stated) | 8.8% | -8.2%
Cc1cc2nc(-c3ccc(SCC(=O)Nc4nccs4)nc3)[nH]c2cc1C | -8.4% | -16.4%
CC(C)CCNc1cc(=O)n(C)c(=O)n1C | -12.8% | -13.4%[1.46 µM]
Cc1ccc(Nc2nnc(SC3CCOC3=O)s2)c(C)c1 (configuration not stated) | -2.1% | -2.6%
Cc1ccc2[nH]c(C)c(CCNC(=O)c3cc4cc(Br)ccc4oc3=O)c2c1 | -5.9% | -0.5%
O=C(c1ccc(NS(=O)(=O)c2ccccc2)cc1)N1CCCC1 | -7.0% | nt
COCCCNC(=O)c1ccc(N(C)S(=O)(=O)c2ccc(OC)cc2)cc1 | -11.2% | -7.8%
Cc1cc2c(c(N)n1)c(=O)oc1ccccc12 | -5.4% | nt
O=C(Nc1nc(NC(=O)c2ccco2)n(-c2ccccc2)n1)c1ccccc1 | ? | ?
Cc1ccc(CNC(=O)C2CCC(=O)N(CCc3ccc(Cl)cc3)C2)s1 (configuration not stated) | -12.2% | -3.2%
CC1(C)CN(c2ccc(N3CC(C)(C)C3=O)cc2)C1=O | -6.8% | -16.5%
O=C1OCc2cc(-n3cccc3)ccc21 | -14.6% | -0.2%
CNc1nc(NCc2ccc(N(C)C)cc2)c2sccc2n1 | -17.8% | -3.0%
CC(=O)c1nn(-c2ccccc2)cc1C(=O)c1ccc(Br)cc1 | -7.2% | -3.5%

Pulled one by one from the list above:
Compound | VACV Venus inh | VACV mCherry inh
O=C(CSc1nnc(Cc2ccccc2)o1)NCc1ccc2c(c1)OCO2 | -3.4% | -0.3%
CC(C)CCNc1cc(=O)n(C)c(=O)n1C | -12.8% | -13.4%[1.46 µM]
Cn1c(N)c(C(=O)CSc2nc(N)cc(N)n2)c(=O)n(C)c1=O | -8.8% | i

Next part
Compound | VACV Venus inh | VACV mCherry inh
CC1=C(C(=O)N2CCCC(C(=O)c3cccc(C(F)(F)F)c3)C2)OCCO1 (configuration not stated) | -26.8% | -1.3%
O=C1CCC([N+](=O)[O-])C(c2cccc3ccccc23)N1 (configuration not stated) | -20.2% | -4.5%
CCN(CC(=O)NCc1ccc(F)cc1)C(=O)c1cccnc1SC | -6.6% | i
Cn1cnnc1SCC(=O)NCc1cccc(C(F)(F)F)c1 | -3.7% | i
Cc1ccc(S(=O)(=O)c2nc(-c3cccs3)oc2N2CCCCC2)cc1 | -12.6% | -0.7%
CCN(Cc1ccccc1)c1ncnc2c1nnn2C | -5.0% | -10.2%
O=C1CCN(S(=O)(=O)c2ccc(Cl)cc2)CCN1 | 0.0% | -0.4%
COCC(C)NC(=O)CCSc1nc(-c2ccc(OC)cc2)cc(C(F)(F)F)n1 (configuration not stated) | -19.1% | -26.9%
Cc1ccc(CNS(=O)(=O)c2c(C)n(C)c(=O)n(C)c2=O)cc1 | -2.8% | -15.2%
CCNc1cc(Cl)nc(SC)n1 | -22.0% | -1.8%
CC(=O)c1cccc(NC(=O)CCOc2ccccc2)c1 | 3.2% | nt
COc1ccc(CCNC(=O)C(=O)NCCC2CCCCN2S(=O)(=O)c2ccccc2)cc1 (configuration not stated) | -19.4% | -25.1%
COC(=O)COc1ccc(C2NC(=O)NC(c3ccccc3)=C2C(C)=O)cc1OC (configuration not stated) | -8.0% | nt
C[C@@H](C(=O)NC1CCCC1)N1C(=O)N2CCc3c([nH]c4ccccc34)[C@@]2(C)C1=O | -13.2% | -11.6%
CC(C)n1cc2c(c1-c1ccccc1Cl)c(=O)n(C)c(=O)n2C | -15.9% | -19.4%
CCOC(=O)C(=CNc1ccc(NC2=NCC(C)(C)S2)cc1)C(=O)OCC | -12.6%[7.34 µM] | -8.9%[7.34 µM]
CC(C)CC(NC(N)=O)C(=O)Nc1ccc(Cl)c(Cl)c1 (configuration not stated) | -11.8% | i
Cc1c(NC(=O)CSCc2ccc(Br)cc2)c(=O)n(-c2ccccc2)n1C | 7.4% | -8.3%
COc1ccc(OC)c(-c2cc(C(=O)Nc3cccc(Cl)c3C)no2)c1 | -6.5% | -5.1%
O=C(COC(=O)c1n[nH]c2ccccc12)Nc1ccc(Cl)cc1[N+](=O)[O-] | -11.8% | ?
CCN(c1cccc(C)c1)S(=O)(=O)c1ccc2[nH]cc(C(=O)NCCCOC)c(=O)c2c1 | -15.3% | -19.9%
Cc1cccc(OCC(=O)OCC(=O)c2c(N)n(C)c(=O)n(C)c2=O)c1C | -10.1% | i
CC1(C(=O)Nc2ccc3c(c2)OCCO3)CSCC(=O)N1CCCN1CCOCC1 (configuration not stated) | 2.4% | -9.7%
CCOC(=O)c1cnc(Nc2nc3ccccc3o2)nc1CSc1ncccn1 | 12.4% | -13.0%
O=C(c1ccc2c(c1)OCO2)N1CCC2(CC1)Oc1ccc(F)cc1C(=O)C21CC(c2ccc(Cl)cc2)=NO1 (configuration not stated) | -20.1% | i

Going on with the list.
Compound | VACV Venus inh | VACV mCherry inh
CC(C)NC(=O)C1CC(=O)N(c2ccc(F)c(Cl)c2)C1 (configuration not stated) | -2.9% | nt
Cc1ccc(-c2nnc(N3CCN(C(=O)COc4cccc(C)c4)CC3)c3ccccc23)cc1 | ? | ?
CC(=O)c1cnc2sccn2c1=O | 0.3% | -7.3%
CC(NC(=O)C1CCCN1S(=O)(=O)c1cccc2cccnc12)c1ccccc1 (configuration not stated) | -11.2% | i
CN(CCC#N)c1ccc(/C=C/c2ccnc3ccccc23)cc1 | -14.3% | -27.4%
O=C(NCCN1CCOCC1)c1nn2c(c1Cl)NC(c1ccccc1)CC2C(F)(F)F (configuration not stated) | 1.7% | -13.1%
COCC(O)CSc1nc(C)[nH]c1[N+](=O)[O-] (configuration not stated) | -0.4% | -12.1%
C=CCn1c(CCC(O)COCCCCC)n[nH]c1=S (configuration not stated) | -11.5% | -20.2%
CCN(CC)C(=O)CSc1nc2ccccc2o1 | -14.9% | nt
CCc1ccc(CNC(=O)c2cc3c(=O)n(Cc4cccs4)ccc3nc2C)cc1 | -14.3% | -11.8%
Cc1ccsc1/C=C/c1n[nH]c(=O)c(C#N)c1C | 2.3% | 1.2%
COc1ccc(N(C(=O)c2snc(C(N)=O)c2N)C(C(=O)NCC2CCCO2)c2ccc3ncccc3c2)cc1OC (configuration not stated) | -8.8% | -10.5%
Cc1ccc(N2C(=O)NC(NC(=O)c3ccc(Cl)cc3)(C(F)(F)F)C2=O)cc1 (configuration not stated) | -11.7% | -20.4%
Cc1cccc(NC(=O)Cn2c(=O)n(CCC(=O)N3CCc4ccccc4C3)c(=O)c3ccccc32)c1 | -9.0% | -1.2%
CCCCNc1nc(Oc2ccc(=O)n(-c3ccccc3)n2)nc(N(C)C)n1 | -9.4% | -12.2%
COc1ccccc1NC(=O)C1=C(C)Nc2nnnn2C1c1cccc(C)c1 (configuration not stated) | -8.2% | i
COc1ccc(Cl)cc1NC(=O)CSc1nnc(COc2ccccc2)n1C | -23.1% | ?
CCCCc1cc(=O)oc2cc(C)cc(OC(C)C(=O)NCC3CCC(C(=O)O)CC3)c12 (configuration not stated) | -5.6% | -0.1%
CCCCn1c(=O)cc(C)n(-c2ccccc2)c1=O | -9.6% | -8.4%
O=C(COC(=O)[C@H](Cc1ccccc1)N1C(=O)c2ccccc2C1=O)Nc1ccc2c(c1)OCO2 | -4.3% | nt
COC(=O)C1=C[C@@H](C(=O)OC)[C@@H]2C3=C(C(=O)[C@]2(C)NC(=O)c2ccccc2)[C@H](C)n2c(=O)n(C)c(=O)n2[C@@H]3C1 | -0.6% | i
COC1CCN(C(=O)c2cc(COc3cc(C)ccc3C)on2)CC1 | -14.0% | i
CCNC(=S)N/N=C/c1ccc(OCC(=O)Nc2ccc(OC)cc2)c(OC)c1 | -3.1% | -4.9%
CSc1ncccc1C(=O)OCc1ccc(C#N)cc1 | -17.8% | -23.0%
Cc1cccc(OCC(=O)N(Cc2ccccc2)c2ccccn2)c1 | -4.8% | -0.4%

Continued.
Compound | VACV Venus inh | VACV mCherry inh
O=C(CCC(=O)N1CCOc2ccccc21)NCCN1CCOCC1 | -0.8% | 5.2%
O=C1C=C(Nc2ccccc2)CC(c2ccccc2)C1 (configuration not stated) | -28.6% | i
CN(C)/C=N/c1sc2c(c1C(N)=O)CCCC2 | -17.8% | -9.2%
CCn1cc(C(=O)OCC(=O)c2cc(C)n(-c3ccccc3F)c2C)c(=O)c2ccc(C)nc21 | -13.0% | -7.5%
CC(=O)c1cc(C(=O)Nc2ccccc2C(=O)O)oc1C | -27.9% | nt
COc1ccc(NC(=O)c2cccc(Cn3cc(Br)c([N+](=O)[O-])n3)c2)c(C)c1 | ? | -25.5%
O=C(Nc1cccc(S(=O)(=O)N2CCOCC2)c1)c1ccc(=O)[nH]c1 | -10.6% | -13.7%
Cc1c(NC(=O)CSc2nc3ccccc3[nH]2)c(=O)n(-c2ccccc2)n1C | -9.0% | -16.3%
